Assay outcomes deposited in PubChem BioAssay by National Center for Advancing Translational Sciences (NCATS).
RECQ1 helicase: inhibitors of human RECQ1 DNA helicase. actives 0.54% (n = 240,000). RECQ1 DNA unwinding, red fluorescence kinetic read. P46063. Potency, µM (doses to about 57.3 µM), for inactives: at the highest dose activity, negative = inhibition, hits mostly inhibitors;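 note: plate controls were vehicle for no effect and no enzyme for full effect; nearly all actives have a fitted effect of over 30% in size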
Target sequence (P46063 whole entry, looked up): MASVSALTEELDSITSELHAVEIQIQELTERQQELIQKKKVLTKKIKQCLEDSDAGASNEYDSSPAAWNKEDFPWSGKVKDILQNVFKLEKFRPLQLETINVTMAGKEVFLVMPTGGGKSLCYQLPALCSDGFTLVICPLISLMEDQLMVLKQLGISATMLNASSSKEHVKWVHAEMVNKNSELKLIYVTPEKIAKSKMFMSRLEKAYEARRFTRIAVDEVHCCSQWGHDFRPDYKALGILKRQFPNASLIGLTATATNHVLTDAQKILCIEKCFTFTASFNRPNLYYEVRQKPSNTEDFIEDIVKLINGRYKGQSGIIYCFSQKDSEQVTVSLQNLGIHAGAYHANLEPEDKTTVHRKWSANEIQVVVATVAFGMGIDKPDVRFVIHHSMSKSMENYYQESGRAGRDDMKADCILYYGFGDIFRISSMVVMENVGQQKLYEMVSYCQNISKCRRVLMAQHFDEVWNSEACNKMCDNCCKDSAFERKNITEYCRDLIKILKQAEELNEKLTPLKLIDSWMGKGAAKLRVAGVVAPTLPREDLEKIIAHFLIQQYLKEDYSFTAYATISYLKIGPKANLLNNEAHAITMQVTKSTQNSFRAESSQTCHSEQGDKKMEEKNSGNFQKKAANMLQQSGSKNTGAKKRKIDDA
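RECQ1T1 50 nM; forked duplex (20 bp + 30-nt ss tails) 200 nM, ATP 2 mM final; pH 8.0, 2 mM MgCl2, 2.5 ug/ml poly(dI-dC); 15 min compound preincubation; discontinuous kinetic read over 2 h at RT.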
TR SRC2 fluor cs: alters Texas Red total fluorescence, flagging assay interference. TRb/SRC2 Texas Red total fluorescence interference. Potency, µM (top dose mostly 106 µM), inactives show top-dose fluorescence change, negative = quenching. actives 0.29% (n = 280,000); active = well fitted curve in either direction with a large enough effect; inconclusive = small, poorly fitted or top-dose-only effect
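Human TRβ ligand-binding domain (0.6 uM) and Texas Red SRC2 peptide (20 nM) in Tris buffer with 1 uM T3 and 5% DMSO were incubated with pinned compound for 5 hr at ambient temperature. Total fluorescence was computed as S + 2P (555/632 nm).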
TRb SRC2 PPI: inhibitors of human thyroid hormone receptor beta-SRC2 interaction. P10828. TRbeta-SRC2 peptide binding, fluorescence polarization; receptor liganded with 1 µM T3. Potency, µM (series often up to 106 µM), for inactives: at the highest dose activity change, negative = inhibition, hits mostly inhibitors. actives 0.065% (n = 280,000);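 note: plate controls were bound peptide for no effect and peptide without receptor for full effect; nearly all actives have a fitted effect of over 50% in size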
Target sequence (P10828 whole entry, looked up): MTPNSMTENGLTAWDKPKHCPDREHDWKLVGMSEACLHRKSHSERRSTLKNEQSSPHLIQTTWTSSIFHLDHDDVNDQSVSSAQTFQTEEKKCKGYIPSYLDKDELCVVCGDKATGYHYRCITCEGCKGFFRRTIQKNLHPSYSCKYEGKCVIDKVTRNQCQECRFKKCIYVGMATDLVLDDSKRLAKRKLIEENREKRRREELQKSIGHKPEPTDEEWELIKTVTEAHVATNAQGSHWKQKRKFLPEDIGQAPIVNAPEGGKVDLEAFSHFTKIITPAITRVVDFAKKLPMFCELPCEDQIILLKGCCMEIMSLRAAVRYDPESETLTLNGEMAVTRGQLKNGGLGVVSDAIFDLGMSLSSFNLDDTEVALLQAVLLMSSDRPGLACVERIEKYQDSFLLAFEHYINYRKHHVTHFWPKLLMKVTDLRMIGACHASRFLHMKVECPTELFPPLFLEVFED
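Read-out is fluorescence polarization (555 nm excitation, 632 nm emission) of a Texas Red SRC2 coactivator peptide; loss of signal reflects blocked binding to human TRb ligand-binding domain in the presence of 1 uM T3.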
GAA spleen mod: inhibits or activates alpha-glucosidase in human spleen homogenate; P10253; human spleen homogenate, 4-MU-alpha-glucoside fluorescence; Potency, µM (doses to about 79.9 µM), for inactives: at the top dose activity change, negative = inhibition, actives largely listed as inhibitors; actives 0.006% (n = 240,000); AID 2112;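 note: 0% = enzyme with vehicle and -100% = no enzyme basal signal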
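Compounds were titrated against alpha-glucosidase in spleen homogenate at pH 5.0, with 1 mM 4-methylumbelliferyl substrate for 40 min at 37 C. Reactions were quenched with pH 10 NaOH/glycine and fluorescence measured.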
GAA inh: blocks human lysosomal alpha-glucosidase; Potency, µM (doses to about 76.9 µM), for the others: at the top dose activity change, negative = inhibition, usual class: inhibitors; actives 0.005% (n = 200,000); purified human GAA, 4-MU-alpha-glucoside fluorescence; P10253;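 note: plate controls were uninhibited enzyme wells for no effect and no-enzyme background for full effect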
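qHTS format, compound range up to 77 uM. Human lysosomal enzyme at 4 nM, 400 uM 4-MU glucoside substrate, pH 5.0, 20 min room temperature; fluorescence after alkaline stop gives activity normalized to controls.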
GAA glycogen: GAA glycogen-cleavage inhibition or activation; recombinant GAA, glycogen substrate, Amplex Red glucose oxidase fluorescence; Potency, µM (doses to about 76.4 µM), inactives show at the highest dose activity change, negative = inhibition, most hits filed as inhibitors; actives 0.38% (n = 300,000); AID 2100;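 note: 0% = full enzyme reaction and -100% = no-enzyme basal signal; the screen sought inhibitors and activators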
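Recombinant human alpha-glucosidase (4 nM final) hydrolysed bovine liver glycogen (30 ug) for 40 min at 37 C in pH 5.0 citrate/phosphate with 0.01% Tween-20. Released glucose detected by glucose oxidase/Amplex Red, Ex 573/Em 610 nm. Compounds up to 77 uM; AC50 from Hill fits.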
L3MBTL1 block: inhibitors of human L3MBTL1; Q9Y468; AlphaScreen L3MBTL1–H3K9me1 peptide binding; Potency, µM (titrated, usually from 57.1 µM), for inactives: at the highest dose activity, negative = inhibition, hits mostly inhibitors; actives 0.66% (n = 230,000); AID 485360; note: nearly all actives have a fitted effect of over 60% in size
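Read-out is AlphaScreen signal from streptavidin donor and nickel chelate acceptor beads (10 ug/mL final each) bridging L3MBTL1 (50 nM) and biotinylated K9-monomethylated H3(1-15) peptide (75 nM), after 30 min compound exposure at room temperature.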
The depositor's hits bear a star; i = inactive; ? = inconclusive; . = not tested or not shown; & = joins results of further samples. Unless noted, calls come from the whole dose curve; as a rule, active = well fitted curve in the direction sought with a large enough effect; inconclusive = small, poorly fitted or top-dose-only effect, or another doubt; inactive = no such curve, though single readings can be large; an effect the other way counts as inactive or inconclusive. Unless noted, % is set by controls: 0 for no effect and ±100 for the full control effect; potency is the fitted concentration of half-maximal effect. A portion of the library (hit frequency here may not be typical).

Order of results: RECQ1 helicase | TR SRC2 fluor cs | TRb SRC2 PPI | GAA spleen mod | GAA inh | GAA glycogen | L3MBTL1 block
- CCCCN(C)C1=Nc2cccc3cccc1c23
    -0.2% | -0.8% | -7.7% | -5.6% | -8.7% | -3.1% | .
- CCOc1cc(C(=O)OCC(=O)NC(C)c2ccccc2)ccc1OCC(=O)N1CCOCC1 (stereo unspecified)
    -0.7% | -1.8% | -4.4% | 11.9% | ? | 0.5% | .
- COc1ccc(C(=O)NC(C)c2nnc(SCc3ccc(Cl)c(Cl)c3)n2C)cc1 (stereo unspecified)
    i | -3.7% | 0.8% | 0.0% | -3.0% | 2.3% | 3.0%
- CS(=O)(=O)N(Cc1ccc(Cl)cc1)c1ccc(C(=O)N2CCN(c3ccccc3)CC2)cc1
    -16.5% | -3.0% | -2.8% | -6.8% | 0.2% | 11.9% | .
- Cc1nn(CC#N)c(=O)n1-c1ccccc1
    -7.0% | 0.7% | -6.8% | -2.1% | 0.5% | -13.3% | .
- CCCCCOC(=O)Nc1nc(=O)n(C2O[C@H](C)[C@@H](O)[C@@H]2O)cc1F (stereo partly specified)
    . | -2.5% | -2.3% | . | . | . | .
- CCCn1c2c(c(=N)c3c1CCC3)CCCC2
    -13.0% | -0.5% | 3.2% | 1.1% | 7.2% | 10.8% | -21.8%
- CN(C)C(=O)c1ccc(-c2cc(C(F)(F)F)n(C)n2)s1
    -0.4% | 1.0% | -6.2% | -5.7% | -9.2% | -2.9% | 2.2%
- COc1ccc(CNc2nc3c(c(=O)n(Cc4ccc(Cl)cc4)c(=O)n3C)n2C)cc1
    -5.7% | 2.1% | 9.2% | 1.9% | -5.1% | -11.2% | -7.3%
- Cc1ccccc1OCc1nnc(SCC(=O)NCc2ccco2)n1C
    -0.8% | -1.5% | -7.7% | 4.6% | -6.4% | -12.1% | -4.5%
- CCCCC(=O)Nc1nnc(SCC(=O)N2CCN(c3ccccc3OC)CC2)s1
    -11.9% | -4.6% | -4.5% | -2.8% | -3.1% | 7.6% | -2.4%
- COc1ccc(C(=O)Cc2cc(OC)c(OC)cc2C(=O)c2ccccc2F)cc1OC
    14.9% | -0.7% | -7.8% | 6.6% | -19.2% | -4.0% | -6.4%
- CC1Cc2nc(SCC(=O)Nc3ccccc3F)n(C)c(=O)c2S1 (stereo unspecified)
    i | -5.9% | -10.2% | -18.4% | 2.6% | 1.7% | 27.5%
- COc1cc(/C=N\Nc2ccc([N+](=O)[O-])cn2)ccc1OCC(=O)O
    i | -4.5% | 3.4% | -7.5% | -5.4% | -12.3% | 9.4%
- COc1ccccc1CN(C)C(=O)C1(c2ccc(Cl)cc2)CC1
    -5.3% | 0.6% | -0.5% | -3.3% | 1.9% | 3.4% | 11.3%
- Cn1nnnc1SCc1ccc(C(=O)Nc2ccc(Br)cc2)cc1
    18.0% | -0.9% | -2.8% | -14.5% | 6.0% | -5.2% | 4.6%
- O=C(C1CCCCN1S(=O)(=O)c1ccccc1)N1CCN(C(c2ccccc2)c2ccccc2)CC1 (stereo unspecified)
    -10.0% | 2.1% | 8.3% | -5.0% | -3.5% | -4.1% | -1.4%
- CC1CN=C(N(Cc2ccccc2)C(=O)Nc2ccccc2)S1 (stereo unspecified)
    9.0% | 0.1% | 4.0% | -3.0% | -5.6% | 2.5% | .
- COc1ccc(C(=O)N2CCC(n3c(C)nc4cc(F)ccc43)CC2)cc1
    1.2% | -6.4% | 0.4% | 3.4% | -22.9% | 1.5% | .
- COc1ccc(C2CC2/C(=N/OC(=O)c2cccs2)c2ccccc2)cc1 (stereo unspecified)
    -22.5% | -1.6% | -14.1% | -3.6% | -14.5% | 0.6% | .
- c1ccc2c(c1)CCN(C1=Nc3cccc4cccc1c34)C2
    12.6µM* | 2.2% | 5.6% | -7.6% | -1.0% | 1.1% | ?
- CC(=O)C1=C(O)C(=O)N(CCC(=O)O)C1c1cccc(F)c1 (stereo unspecified)
    8.5% | 0.8% | -21.9% | -5.7% | -0.8% | 6.0% | .
- CCOc1ccc(N(CC(=O)Nc2ccccc2)S(C)(=O)=O)cc1
    i | 0.8% | -8.5% | 3.3% | 1.3% | -0.3% | -3.3%
- COc1nc(-c2ccc(Cl)cc2)ccc1-c1noc(-c2ccco2)n1
    -8.2% | 0.3% | 6.3% | -2.9% | -8.0% | -1.4% | .
- CS(=O)(=O)N(Cc1ccco1)CC(O)Cn1cc(C=O)c2ccccc21 (stereo unspecified)
    -9.7% | -5.2% | -7.7% | -0.6% | -0.7% | 0.1% | .
- Cc1ccc(N2C(=O)c3sc4nnc(C)c(=O)n4c3C2=O)cc1
    i | 0.2% | -17.6% | -1.6% | -12.6% | 1.1% | 0.4%
- O=C1Nc2c(c(=O)[nH]c(=O)n2-c2ccc(F)cc2)C1(NS(=O)(=O)c1ccccc1)C(F)(F)F (stereo unspecified)
    -5.1% | 1.0% | -2.8% | -3.4% | . | -4.7% | .
- Brc1ccc(-c2csc(/N=C/N3CCCC3)n2)cc1
    -3.7% | -2.4% | -3.5% | 3.8% | -2.6% | -9.8% | .
- CC(=O)Nc1nnc(SCC(=O)NCCOc2ccccc2)s1
    5.8% | 3.7% | 1.0% | -1.0% | -3.9% | -13.3% | .
- Cc1cc(=O)oc(C)c1C(=O)NCC1CCCO1 (stereo unspecified)
    -3.6% | -5.1% | -1.2% | 4.8% | 2.2% | 7.4% | -5.2%

Full records as entered above. Screens in order: RECQ1 helicase | TR SRC2 fluor cs | TRb SRC2 PPI | GAA spleen mod | GAA inh | GAA glycogen | L3MBTL1 block
Record of Cc1nn(CC#N)c(=O)n1-c1ccccc1 : -7.0% | 0.7% | -6.8% | -2.1% | 0.5% | -13.3% | .
Record of CS(=O)(=O)N(Cc1ccco1)CC(O)Cn1cc(C=O)c2ccccc21 (stereo unspecified) : -9.7% | -5.2% | -7.7% | -0.6% | -0.7% | 0.1% | .
Record of CCOc1ccc(N(CC(=O)Nc2ccccc2)S(C)(=O)=O)cc1 : i | 0.8% | -8.5% | 3.3% | 1.3% | -0.3% | -3.3%

New compounds follow:
Order of results: RECQ1 helicase | TR SRC2 fluor cs | TRb SRC2 PPI | GAA spleen mod | GAA inh | GAA glycogen | L3MBTL1 block
- COc1ccc(NC(=O)NC2(C(=O)N3CCCCCC3)CCCCC2)cc1
    -2.4% | -0.5% | -7.6% | -6.2% | -8.2% | -3.0% | -2.2%
- Cc1ccc2c(c1)C(=O)[C@]1(O)CCN(c3ccccc3)C1=N2
    -3.6%&-6.2% | -0.9%&-1.6% | 3.3%&0.0% | -2.6%&-2.6% | . | . | .
- Cn1c(=O)c2ncn(CC(=O)NCCOc3ccc(C(C)(C)C)cc3)c2n(C)c1=O
    1.8% | -1.4% | -11.3% | -10.5% | -1.1% | -0.2% | 6.5%
- CC(C(=O)N1CCOCC1)N1C(=O)c2ccccc2C1=O (stereo unspecified)
    -2.4% | 1.4% | -19.5% | 0.7% | ? | 8.5% | .
- CCC(=O)N1C(=O)CCN(C(C)=O)c2ccccc21
    -0.8% | 0.4% | 3.2% | -3.7% | 1.5% | -1.3% | -14.1%
- COc1ccc(CCNC(=O)c2ccc3c(c2)OCCO3)cc1
    i | 1.7% | -5.5% | -1.3% | -10.0% | 8.6% | 5.8%
- N#Cc1ccc(-c2cccnc2)nc1SCc1ccc(Cl)c(Cl)c1
    -13.0% | -0.7% | 1.3% | 1.1% | 9.9% | 14.6% | -3.6%
- CCN(CC)C(=O)CC(c1ccc(F)cc1)c1ccc(OC)cc1 (stereo unspecified)
    -0.7% | -8.0% | 4.3% | -18.4% | -0.6% | -2.3% | 11.1%
- CC(=O)Nc1c(O)nc(SCC(=O)Nc2sc3c(c2C#N)CCCCCC3)[nH]c1=O
    i | 0.1% | -3.9% | -2.3% | -5.4% | -18.5% | .
- Cc1ccc(S(=O)(=O)NCCNC(=O)C2CCCNC2=O)cc1 (stereo unspecified)
    -10.8% | 0.4% | -1.8% | 0.8% | 5.1% | 7.7% | .
- O=C1c2ccccc2C(=O)N1CCCCN(C(=O)c1cc2ccccc2oc1=O)c1ccc(Cl)cc1
    -1.8% | -11.0% | -2.5% | 3.9% | 0.2% | -5.2% | 10.0%
- CS(=O)(=O)N1CC(C(=O)NC2CC2)Oc2ccc(Cl)cc21 (stereo unspecified)
    -12.1% | -0.4% | 3.3% | 4.2% | 0.2% | 1.2% | 6.4%
- CC(=O)c1ccc2c3c(cccc13)C(=O)N(c1c(C)nn(C)c1C)C2=O
    -2.7% | -1.8% | -0.8% | -5.4% | ? | -0.3% | 14.0%
- O=C(CN(c1ccccn1)S(=O)(=O)c1ccccc1)N/N=C/c1cccc([N+](=O)[O-])c1
    -1.5% | 5.3% | -0.6% | -1.0% | -2.7% | 5.3% | 5.4%
- CCn1c(-c2ccccc2Cl)nn(CC(=O)Nc2ccccc2C)c1=S
    -3.8% | -1.2% | -11.3% | -6.5% | 6.9% | -4.9% | -0.2%
- CNC(=O)COC(=O)c1cccc(S(=O)(=O)N2CCN(c3ccc(F)cc3)CC2)c1
    -5.6% | -2.7% | -0.1% | 2.5% | . | 3.5% | -2.1%
- CCn1c(CNC(=O)COc2ccc(C(C)C)cc2)nnc1SCC(=O)Nc1cc(F)ccc1C
    i | 0.3% | -4.6% | -1.7% | -8.6% | 2.5% | 2.3%
- O=S(=O)(c1ccccc1)N1CCC2(CC1)CO2
    6.3% | 1.6% | -13.9% | -2.2% | -2.5% | 6.6% | ?
- Cc1cc2cc(CNC(=O)c3ccc(S(=O)(=O)N4CCCCC4)cc3)ccc2n1C
    3.7% | -2.8% | -8.3% | -5.2% | -17.4% | 5.6% | .
- Cc1ccc(S(=O)(=O)N2CCOCC2)cc1NC(=O)COC(=O)CCC(=O)c1cccs1
    -5.8% | 0.6% | 1.4% | -8.9% | -24.5% | 8.4% | -6.0%
- CCCCn1c2c(c(=N)c3c1CCC3)CCC2
    -11.5% | 0.3% | -5.6% | -4.1% | 2.5% | -5.9% | -12.5%
- CC(=O)NS(=O)(=O)c1cccnc1Nc1cccc(Cl)c1
    -1.8% | -0.2% | 1.7% | 1.5% | 0.1% | 2.9% | .
- CCC(CC)C(=O)OCC(=O)NC12CC3CC(CC(C3)C1)C2
    -7.4% | 1.1% | -8.3% | -0.1% | -5.9% | -4.7% | .
